From PubChem
gsp agonist: agonists of gsp mutant (McCune-Albright syndrome). gsp mutant cells, cAMP HTRF, 30 min; control for the full effect not named in the record. 0.13% of 340,000 active. Potency, µM (doses to about 76.9 µM), for inactives: at the highest dose activation (cAMP increase), usual class: activators. AID 624287; active = well fitted activation curve with a large enough effect; inconclusive = small, poorly fitted or top-dose-only effect, or another doubt; inactive = no such curve, though single readings can be large or run the other way; cell line not stated here;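 also: phosphodiesterase inhibitor Ro 20-1724 added with compounds to block cAMP breakdown; potency is read from the fitted curve at half-maximal effect; nearly all actives have a fitted effect of over 60% in size; about a fifth of the inactives were tested at one dose only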
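Cells stably selected in G418 were plated at 2000/well, grown 16-24 hr, then given compounds in DMSO with the PDE inhibitor […] (300 uM solution added) for 30 min at 37C; cAMP was read by HTRF.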
Menin MLL FP FL: displaces fluorescein MLL peptide from human menin; Fluorescence polarization, fluorescein-MLL peptide displacement from menin; FP activity change, % at 61.4 µM; 290,000 tested, under 10 active; AID 1766; inconclusive = falling polarisation curve, or a change in total fluorescence; inactive = total fluorescence flat and polarisation flat or rising; no compound was filed as active; the % refers to the polarisation; negative = inhibition;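 also: % of control where 0% means no effect; inhibitors lower the polarisation; unlabelled MLL peptide was the positive control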
ClpP mod: qHTS Assay for Activators of ClpP | Potency, µM (top dose mostly 57.5 µM), without a hit: at the top dose activity change, negative = active | AID 651965, 2013 | purified B. subtilis ClpP, FRET peptide cleavage, 20 min | 1.9% of 340,000 active; active = well fitted falling curve with a large enough effect; inconclusive = small, poorly fitted or top-dose-only effect; inactive = no such curve, though single readings can be large or run the other way; also: potency is read from the fitted curve at half-maximal effect; the source files actives as falling curves though it sought activators and does not explain the sign; nearly all actives have a fitted effect of over 65% in size; many hits overshoot -100%
Target sequence (P80244 whole entry, looked up): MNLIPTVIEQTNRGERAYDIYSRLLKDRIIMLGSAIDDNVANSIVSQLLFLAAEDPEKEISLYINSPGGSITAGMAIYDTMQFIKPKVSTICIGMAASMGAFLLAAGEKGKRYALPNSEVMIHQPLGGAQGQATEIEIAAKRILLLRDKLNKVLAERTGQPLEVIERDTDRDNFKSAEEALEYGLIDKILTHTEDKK
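ClpP 10 microg/mL final, pH 8 Tris/KCl buffer with BSA, glycerol, Tween-20; compound pinned in; FRET-FV substrate; RT 20 min; Ex320/Em430; ΔFRET vs ADEP 5.8 microM, DMSO, no enzyme.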
Sfp PPTase inh: Sfp phosphopantetheinyl transferase inhibition | Potency, µM, for the others: max response, negative = inhibition, most hits filed as inhibitors | 3.5% of 310,000 active | Biochemical Sfp PPTase activity, qHTS | Q9F4F7; active = well fitted inhibition curve with a large enough effect; inconclusive = small, poorly fitted or top-dose-only effect, or another doubt; inactive = no such curve, though single readings can be large or run the other way;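 also: the enzyme is Sfp with the accession as filed and its product quenches rhodamine fluorescence; potency is read from the fitted curve at half-maximal effect; 0% = enzyme reaction without inhibitor and -100% = no enzyme wells; top concentration of the series not given in the record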
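Fluorescence-quenching assay with 15 nM Sfp, 5 uM rhodamine-CoA and 12.5 uM BHQ-2-labelled ybbR peptide in pH 7.6 Hepes/MgCl2 buffer. Enzyme was pre-incubated with compound for 15 min at room temperature. Rate was taken from the 30-min fluorescence change (525/598 nm).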
TRPV1 PAM: potentiators of human vanilloid receptor 1 (TRPV1). Q8NER1. TRPV1-expressing cells, Fluo-8 calcium influx, capsaicin EC20 potentiation; host cell line not named in the record; control for the full effect not named in the record. potentiation, % at 8.33 µM. 0.02% of 320,000 active; active means potentiation above 80%; inconclusive means 30% to 80%; inactive means below 30%; also: 0% is about no effect
Target sequence (Q8NER1 whole entry, looked up): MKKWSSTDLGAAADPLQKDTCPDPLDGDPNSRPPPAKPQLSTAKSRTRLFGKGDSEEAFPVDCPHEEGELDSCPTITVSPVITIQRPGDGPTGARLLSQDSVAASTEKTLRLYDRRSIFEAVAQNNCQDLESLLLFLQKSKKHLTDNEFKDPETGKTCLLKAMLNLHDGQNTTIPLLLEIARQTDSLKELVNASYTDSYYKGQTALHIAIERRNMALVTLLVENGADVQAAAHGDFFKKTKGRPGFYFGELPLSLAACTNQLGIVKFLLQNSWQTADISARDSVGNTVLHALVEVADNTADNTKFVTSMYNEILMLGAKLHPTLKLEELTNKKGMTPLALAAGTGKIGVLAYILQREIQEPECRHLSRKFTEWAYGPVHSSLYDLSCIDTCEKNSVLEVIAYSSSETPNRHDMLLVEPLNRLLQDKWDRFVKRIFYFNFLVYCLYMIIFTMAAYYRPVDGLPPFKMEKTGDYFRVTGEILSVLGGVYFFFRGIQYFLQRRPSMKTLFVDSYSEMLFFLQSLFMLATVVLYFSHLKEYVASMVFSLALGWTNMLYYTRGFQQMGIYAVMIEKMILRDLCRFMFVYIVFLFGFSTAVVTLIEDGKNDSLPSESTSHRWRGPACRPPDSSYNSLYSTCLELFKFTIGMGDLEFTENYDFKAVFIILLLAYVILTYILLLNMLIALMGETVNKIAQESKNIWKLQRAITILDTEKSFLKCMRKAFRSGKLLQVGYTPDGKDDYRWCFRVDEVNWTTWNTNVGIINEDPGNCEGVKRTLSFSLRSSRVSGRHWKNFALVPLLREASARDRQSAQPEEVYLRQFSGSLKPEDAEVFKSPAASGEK
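Cells expressing TRPV1 were dye-loaded with Fluo-8 and read kinetically: 10 s baseline, 3 min after compound (agonist portion), then 2 min after EC20 capsaicin (allosteric enhancer portion). Calcium-bound dye fluorescence at 480/520 nm.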
gsp antag: antagonizes gsp, the McCune-Albright syndrome mutation; gsp-mutant cells, cAMP HTRF, 30 min; control for the full effect not named in the record; AID 624288; 0.4% of 340,000 active; Potency, µM (top dose mostly 76.9 µM), inactives show top-dose activity change, negative = inhibition, actives largely listed as inhibitors; active = falling curve of any shape with a large fitted effect; inconclusive = falling curve, mostly with a smaller effect; inactive = flat or rising curve; cell line not stated here;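 also: intracellular cAMP measured with PDE inhibitor Ro 20-1724 present during compound exposure; potency is read from the fitted curve at half-maximal effect; % is scaled to controls: 0 for no effect and ±100 for the full control effect; nearly all actives have a fitted effect of over 65% in size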
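HTRF cAMP read-out (cAMP-d2 plus anti-cAMP antibody-K in lysis buffer, 30 min RT). Before lysis, cells are exposed to compounds with […] for 30 min at 37C in DPBS containing Ca/Mg, BSA and Tween 20.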
TRPML1 inh: blocks the human TRPML1 channel; Q9GZU1; TRPML1-inducible cells, Ca2+ dye fluorescence, FDSS; stronger effect = lower value; inhibition of EC80 agonist-evoked calcium signal; activity change, negative = inhibition, % (concentration not given with the values); 0.02% of 390,000 active; AID 624415; in the data active means activity change below about -50%; inconclusive means about -30% to -50%; inactive means above about -30%;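 also: stimulus is agonist 54-4 at its EC80 concentration; % is scaled to controls: 0 for no effect and ±100 for the full control effect; compound concentration not given in the record; the text of the record puts the active cut at -80%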
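TRPML1-DL cells, Tet-induced overnight (~16 h, 37 °C) at 1,500 cells/well, were loaded with Ca8 no-wash dye plus quencher for 45-90 min at room temperature. Compounds were pinned during FDSS kinetic reading; agonist 54-4 at EC80 (4 uM final) then added.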
Active calls of the source: *; ? = inconclusive; nt = no result given; & = joins results of further samples; [ ] = dose if it differs, or a comment.

SMILES	gsp agonist	Menin MLL FP FL	ClpP mod	Sfp PPTase inh	TRPV1 PAM	gsp antag	TRPML1 inh
CC1(C)NC(=O)N(CC(O)COc2ccc(-c3ccc(C#N)cc3)cc2)C1=O (stereo not given)	-17%	4.5	25%	6%	20	?	0
Cc1ccccc1S(=O)(=O)Nc1nc2ccccc2nc1NCCO	21%	1.9	?	20%	10	4%	14
CCCCCCn1c(NCC)nc2c1c(=O)[nH]c(=O)n2C	?	0.9	2.1%	-4%	-19	17%	2
COc1ccccc1C(=O)N(CCC1CCCN1C)c1nc2ccccc2s1 (stereo not given)	1%[15.4 µM]	-1.8	nt	1%	-2	10%	11
Cc1ccc(C2N(c3ccc(Cl)c(Cl)c3)C(=O)C3CCCN32)o1 (stereo not given)	-10%	11	-1.1%	6%	nt	-8%	0
CCCSC1=N/C(=C/c2ccsc2)C(=O)N1c1ccccc1	-11%	1.3	-4.7%	-27%	2	5%	7
CCOc1ccc(S(=O)(=O)Nc2ccc(C(=O)NCCCN3CCOCC3)cc2)cc1	?	nt	-1.1%	nt	-3	-13%	24
CC(=O)Cn1ncc(N2CCOCC2)cc1=O	3%	1.4	1.2%	-8%	-2	3%	-9
COc1ccc(C[C@H]2CN3C(=NC[C@@H]3C(C)C)N2C[C@H](C)NC(=O)c2ccc(C)c(Br)c2)cc1	-42%	-5.3	1.0%	4%	3	0%	18
CCOC(=O)C1=C(C)N=C2SC(C(=O)OC)=CC(=O)N2C1c1ccc(F)cc1 (stereo not given)	-38%[inhibitor]	17	0.6%	?	11	?	-20
O=C(NCCc1ccccc1)c1cnc2sccn2c1=O	?	-1.8	4.2%	7%	1	4%	-2
C/C=N/N(c1ccccc1)c1ccccc1	-2%	-1.1	-1.3%	21%	3	11%	nt

Of the compounds above, three contain a halogen:
SMILES	gsp agonist	Menin MLL FP FL	ClpP mod	Sfp PPTase inh	TRPV1 PAM	gsp antag	TRPML1 inh
Cc1ccc(C2N(c3ccc(Cl)c(Cl)c3)C(=O)C3CCCN32)o1 (stereo not given)	-10%	11	-1.1%	6%	nt	-8%	0
COc1ccc(C[C@H]2CN3C(=NC[C@@H]3C(C)C)N2C[C@H](C)NC(=O)c2ccc(C)c(Br)c2)cc1	-42%	-5.3	1.0%	4%	3	0%	18
CCOC(=O)C1=C(C)N=C2SC(C(=O)OC)=CC(=O)N2C1c1ccc(F)cc1 (stereo not given)	-38%[inhibitor]	17	0.6%	?	11	?	-20

The results go on.
SMILES	gsp agonist	Menin MLL FP FL	ClpP mod	Sfp PPTase inh	TRPV1 PAM	gsp antag	TRPML1 inh
CCN1CCN(C(=O)c2cc(=O)c3cc(C)ccc3o2)CC1	-14%	0.4	nt	18%	7	8%	51
COc1ccc(NC(=O)N2CCCCCC2)c(OC)c1	-8%[15.4 µM]	-0.1	nt	-1%	-3	nt	2
CC(C)C(=O)Nc1ccc(NC(=O)c2cccnc2)cn1	-3%	2.6	0.5%	10%	12	3%	-3
O=C(COC(=O)Cc1ccsc1)NCC1CCCCC1	2%	-1.1	-2.1%	12%	-27	-1%	17
CCOC(=O)c1c(C)[nH]c(C)c1C(=O)COC(=O)C1CC(=O)N(CCc2ccccc2)C1 (stereo not given)	4%[15.4 µM]	nt	-2.4%	nt	nt	1%	7
S=C(NCc1ccco1)N1CCC(c2nc3ccccc3o2)CC1	3%	-0.4	-1.9%	-15%	-12	6%	2
COc1ccc(C2=CCCCCC2)cc1OC	10%	nt	-2.5%	nt	nt	nt	-8
Cc1cc(C(=O)NC2=NCCS2)c2ccccc2n1	-7%	-3.0	-0.5%	-2%	?	1%	14
CCOc1ccc(CNS(=O)(=O)c2ccc(-c3ccc(=O)[nH]n3)o2)cc1OC	4%	0.3	-0.6%	7%	2	11%	4
CCc1ccc(N2C(=O)C3C4CCC(C4=C(C)C)C3C2=O)cc1 (stereo not given)	-3%	-0.9	-0.6%	7%	-10	3%	20
CS(=O)(=O)N(CC(=O)Nc1ccc(CC#N)cc1)c1ccc(C23CC4CC(CC(C4)C2)C3)cc1	2%	1.6	-0.3%	12%	-3	-5%	0
CC1Cc2ccccc2N1C(=O)c1cc2sccc2n1Cc1ccc(F)cc1 (stereo not given)	?	0.7	-9.0%	11%	?	-5%	83
CN(CC(=O)Nc1ccc(F)cc1)C(=O)CN1C(=O)NC2(CCCC2)C1=O	-6%[15.4 µM]	nt	-5.4%	nt	?	9%	2
O=C(COC(=O)c1ccc(O)cc1)NC(c1ccccc1)c1ccccc1	-23%	nt	-3.1%	nt	nt	-17%	-1
Cc1cc(Cl)c(S(=O)(=O)N2CCSCC2)cc1OCC(N)=O	?	2.4	-2.4%	-5%	6	1%	-7
C1CC(=NN=C2CCSCC2)CCS1	26%	nt	nt	nt	nt	11%	-7
c1ccc(CNC23CC4CC(CC(C4)C2)C3)nc1	-6%[15.4 µM]	4.1	nt	?	-3	19%	2
CCCCNC(=O)c1onc(CSc2cc(C)ccc2C)c1C(=O)O	nt	-2.6	-1.6%	9%	26	?	-12
CCOCCn1c(SC)nc2c1c(=O)[nH]c(=O)n2C	4%	1.2	0.7%	18µM*	0	9%	7
Cc1cc(S(=O)(=O)N2CCOCC2)ccc1OCC(=O)N1CCC(C(N)=O)CC1	3%	2.7	nt	10%	15	11%	12
CCOC1=C/C(=C/c2c(N)n3nc(CC(=O)N4CCCC4)sc3nc2=O)C=CC1=O	2%	?	0.3%	4%	-3	-16%	21
CCC1=NN(C(=O)Cc2ccc([N+](=O)[O-])cc2)C(O)(C(F)(F)F)C1 (stereo not given)	9%	-4.3	1.1%	14%	?	9%	5
COc1ccc(CNC(=O)[C@@H]2CC=C[C@@H]3CCN(C4CCCCC4)C(=O)[C@@H]32)cc1	-30%	nt	0.3%&0.9%	nt	nt	9%	29
CCOC(=O)c1[nH]c(C)c(C(=O)N2CCCC(Nc3ccc(C)c(C)c3)C2)c1C (stereo not given)	15%	-1.2	0.2%	5%	-9	7%	18
CC12CN3CC(C)(CN(C1)C3c1ccc(Cl)cc1Cl)C2O (stereo not given)	-3%	0.7	-3.9%	5%	7	5%	-5
CC/C(=N\NC(=O)c1ccccc1Cl)c1ccc(Br)s1	3%	3.1	0.8%	26%	-10	-17%	12
Cc1nc(N2CCN(c3ccc(Cl)cc3)CC2)[nH]c(=O)c1C	-17%	-0.3	1.4%	23%	10	0%	nt
O=C1Nc2ccc(F)cc2C12Nc1ccccc1-c1nnc(SCc3ccccc3Cl)nc1O2 (stereo not given)	13%	4.5	19%	-3%	5	-2%	-21
N#Cc1c(N2CCCCC2)nc(N)c2c(N)nc3c(c12)CC(CCl)O3 (stereo not given)	18%[15.4 µM]	-0.9	1.2%	20%	0	3%	17
Cc1cccc(-c2nc3c(s2)CCc2onc(-c4ccc(Br)cc4)c2-3)c1	nt	2.3	?	4%	14	4%	1
O=c1[nH][nH]c(=O)c2c1[nH]c(=S)n2Cc1ccccc1	?	nt	nt	nt	nt	5%	-8
CC(C)(C)n1nnnc1C(c1cccs1)N1CCN(c2ccccc2)CC1 (stereo not given)	-17%	2.8	-4.3%	6%	5	4%	2
Cc1ccc(C(=O)NCc2ccccc2)c(F)c1F	-1%	0.2	2.0%	9%	-13	7%	-14
COC(=O)c1ccccc1NC(=O)CSc1ccccc1	11%	-0.3	-2.3%	-13%	1	?	14
COc1cnc(-c2ccccn2)nc1Oc1ccccc1Cl	-9%	5.3	-3.2%	8%	15	5%	-8
CCOc1ccc(NC(=S)N2CCN(S(=O)(=O)c3ccc(OC)cc3)CC2)cc1	0%	-3.7	-0.7%	5%	-5	2%	-18
Cc1cc(C)n(-c2nc(O)cc(=O)[nH]2)n1	0%	2.6	0.7%	16µM*	5	10%	24
CC(C)OC(=O)C(C)Nc1n[nH]c(=S)[nH]c1=O (stereo not given)	24%[15.4 µM]	-3.6	nt	2%	1	nt	-4
Nn1c(SCC(=O)Nc2cccc(F)c2)nnc1C1CCCCC1	5%	4.4	1.0%	0%	8	8%	-1
Cc1cc(C)c(C(=O)CSc2n[nH]c(-c3ccncc3)n2)c(C)c1	-6%[15.4 µM]	-2.7	nt	-22%	-2	-21%	-3
COCCN(C(=O)c1ccco1)c1nc(-c2ccccc2)cs1	1%[15.4 µM]	4.7	-0.4%	13%	-8	-4%	6
CC(=O)c1ccc(NC(=O)COC(=O)C2CC3C=CC2C3)cc1 (stereo not given)	16%	nt	-0.2%	nt	nt	-8%	-13
Cc1cccc(-c2c(NC(=O)c3ccco3)oc3ccc(Cl)cc3c2=O)c1	?	4.6	nt	10%	-6	-10%	-7
CCc1nc(SCc2nc3ccccc3[nH]2)c2oc3ccccc3c2n1	-34%	8.3	-0.9%	14%	?	13%	15
COc1ccc(C(CC(=O)O)NC(=O)COc2ccccc2)cc1 (stereo not given)	13%	3.2	1.0%	9%	12	12%	11
COc1ccc(NC(=O)c2ccco2)cc1S(=O)(=O)N1CCOCC1	1%	-2.3	nt	27%	4	3%	-9
Cc1ccc([N+](=O)[O-])cc1S(=O)(=O)NCC1COc2ccccc2O1 (stereo not given)	-21%	2.7	0.1%	-1%	-7	-1%	0
CCOc1ccc(NC(=O)CN(c2cc(C)cc(C)c2)S(=O)(=O)c2c(C)noc2C)cc1	16%	1.8	1.4%	20%	7	-4%	7
O=C(CNC(=O)c1n[nH]c2ccccc12)Nc1cc(Cl)ccc1Cl	2%	nt	-14%	nt	nt	4%	-4
O=[N+]([O-])c1cc(C(F)(F)F)ccc1N1CCN(CCO)CC1	-12%[15.4 µM]	-0.5	nt	21%	5	25%	4
COc1ccc2cc(/C=N/NC(=O)CSCc3ccc([N+](=O)[O-])cc3)c(Cl)nc2c1	-1%	0.6	-3.3%	24%	6	0%	-15
COc1ccc2c(=O)c(C(=O)NCCc3ccccc3)c[nH]c2c1	-18%	-2.0	-1.1%	12%	6	?	22
Cc1cc(C=O)c(C)n1-c1ccc(NC2CCCCC2)c([N+](=O)[O-])c1	-2%	4.4	-0.6%	-3%	6	-18%	25

This is a random part of the collection; 4.9% or so of the library scored in one or more.
